StopGo RLuc – FMDV 2A StopGo reporter, Renilla signal; HEK cells with a luciferase reporter of 2A StopGo recoding; Potency, µM (series often up to 57.5 µM), inactives show top-dose signal change, negative = less light; 120,000 compounds, 0.32% hits; active means well fitted falling curve with a large enough effect; inconclusive means small, poorly fitted or top-dose-only effect; inactive means no such curve, though single readings can be large or run the other way; note: nearly all actives have a fitted effect of over 55% in size; overnight with compound
StopGo FLuc – FMDV 2A StopGo reporter, firefly signal; AID 1745856; Potency, µM (series often up to 57.5 µM), for the others: at the highest dose signal change, negative = less light; 120,000 compounds, 0.23% hits; HEK cells with a luciferase reporter of 2A StopGo recoding; active = well fitted falling curve with a large enough effect; inconclusive = small, poorly fitted or top-dose-only effect; inactive = no such curve, though single readings can be large or run the other way; note: nearly all actives have a fitted effect of over 60% in size; overnight with compound
Numbers without * were called inactive; ? = inconclusive; [ ] = dose if it differs, or a comment. % is set by controls: 0 for no effect and ±100 for the full control effect; potency is the fitted concentration of half-maximal effect. These rows are one share of the data, so the mix of outcomes need not match the whole.

SMILES | StopGo RLuc | StopGo FLuc
Cc1cccc2sc(N3CCN(C(=O)CS(=O)(=O)c4ccc(F)cc4)CC3)nc12 | ? | ?
COc1ccc(OC)c(C(=O)COC(=O)c2c(Cl)cccc2Cl)c1 | 0% | 0%
O=S(=O)(c1ccc(F)cc1)N1N=C(c2ccccc2)CC1c1ccc2nccnc2c1 (configuration not stated) | 19% | 42%[activator]
O=S(=O)(Nc1nc2ccccc2nc1N1CCCCC1)c1ccc(Cl)cc1 | 76%[activator] | 32%
CC(=O)c1ccc(N2CCN(C(=O)c3cn(C)c(=O)c4c3c3ccccc3n4C)CC2)cc1 | 134%[activator] | 11%
COc1ccc(C)cc1NC(=O)CSc1nc(=O)n(Cc2ccccn2)c2c1CCC2 | 135%[activator] | -4%
Cn1c(=O)c2c(nc(Cl)n2CC(=O)c2ccc(Br)cc2)n(C)c1=O | ? | ?
CCOC(=O)N1CCc2c(sc(NCc3sccc3C)c2C(=O)Nc2cc(Cl)ccc2OC)C1 | 10% | -6%
Cc1cccc(OCc2cc(=O)n3c4c(sc3n2)CCCC4)c1C | 1% | -14%
COc1ccccc1N1CCN(C(=O)c2cc3c(=O)n(Cc4ccco4)ccc3nc2C)CC1 | 5% | 10%
CCOC(=O)c1ccccc1NC(=O)COC(=O)c1ccc2c(c1)NC(=O)C(C)S2 (configuration not stated) | -7% | 13%
COc1ccc2c(c1)c(=O)c(S(=O)(=O)c1ccc(F)cc1)cn2Cc1ccccc1Cl | 7% | 39%[activator]
CN(C)CCNC(=O)CN1N=C(c2ccccc2)CCC1=O | -7% | -16%
C=CCNCc1ccc(Cl)c(Cl)c1 | 12% | 15%
CCCn1c(-n2nc(C)c(C)c2C)nc2c1c(=O)n(CCN1CCOCC1)c(=O)n2C | -16% | -5%
COCCn1c(SCc2nc(-c3cccc(C(F)(F)F)c3)no2)nc2ccsc2c1=O | -15% | -16%
CCc1c(C)sc2c1CCN(Cc1ccc(F)cc1)C2c1ccccc1 (configuration not stated) | ? | ?
CNC(=O)CNC(=O)c1cc2cc(C)ccc2nc1C | -16% | -10%
O=C(O)/C=C/c1cc(Cl)c(OCc2ccccc2)c(Cl)c1 | 38%[activator] | 74%[activator]
COc1ccc(OC)c(CNC(=O)Cc2ccc(NC(=O)N3CCCCc4ccccc43)cc2)c1 | 22% | -11%
COCCOC(=O)C1=C(C)NC(C)=C(C(=O)OC(C)C)C1c1cccc([N+](=O)[O-])c1 (configuration not stated) | 3% | -6%[11.5 µM]
CCCNC(=O)/C(C)=C/c1ccccc1 | -6% | 0%
Cc1oc2ccc(O)c(CN(C)Cc3ccccc3)c2c1C(=O)Nc1ccccc1 | -7% | -26%
Cc1cccc(C(=O)Nc2ccccc2SC2CCCC2)c1I | 68%[activator] | -3%
COCCNC(=O)Cn1cc(S(=O)(=O)Cc2ccccc2Cl)c2ccccc21 | 13% | 11%
O=C(Nc1nc(-c2cc3ccccc3oc2=O)cs1)c1ccc([N+](=O)[O-])cc1 | -13% | 2%
O=S(=O)(Nc1ccc(C(F)(F)F)cc1)c1ccc2c(c1)OCCO2 | 404%[activator] | 22%
CCCOc1ccccc1Oc1ncccc1CNC(=O)Nc1ccccc1 | -2% | 11%
CCN(/C=C1/CCCCC1=O)C1CC2CCC1C2 (configuration not stated) | -1% | 14%
CCCC(C)NC(=O)c1cc(C)nc2ccccc12 (configuration not stated) | -21% | -18%

Among those listed so far, two have a CF3 group.
SMILES | StopGo RLuc | StopGo FLuc
COCCn1c(SCc2nc(-c3cccc(C(F)(F)F)c3)no2)nc2ccsc2c1=O | -15% | -16%
O=S(=O)(Nc1ccc(C(F)(F)F)cc1)c1ccc2c(c1)OCCO2 | 404%[activator] | 22%

Single values from above:
O=S(=O)(Nc1ccc(C(F)(F)F)cc1)c1ccc2c(c1)OCCO2 – StopGo FLuc: 22%
COc1ccc(C)cc1NC(=O)CSc1nc(=O)n(Cc2ccccn2)c2c1CCC2 – StopGo FLuc: -4%
COc1ccccc1N1CCN(C(=O)c2cc3c(=O)n(Cc4ccco4)ccc3nc2C)CC1 – StopGo FLuc: 10%
Cc1cccc(OCc2cc(=O)n3c4c(sc3n2)CCCC4)c1C – StopGo RLuc: 1%
COCCNC(=O)Cn1cc(S(=O)(=O)Cc2ccccc2Cl)c2ccccc21 – StopGo RLuc: 13%

Carrying on.
SMILES | StopGo RLuc | StopGo FLuc
Cc1cc(=O)oc2cc(OCC(=O)N(C)CCOc3ccc(Br)cc3)ccc12 | -4% | -12%
COC(=O)c1cc(OC(=O)CCS(=O)(=O)c2ccc(C)cc2)cc(C(=O)OC)c1 | 0% | -4%
Cc1ccc(C)n1-c1c(C(=O)NCCN2CCOCC2)sc2ncccc12 | 10% | 16%
O=S1(=O)c2c(cccc2N2CCSCC2)Oc2ccccc2CN1Cc1cn(Cc2ccccc2C(F)(F)F)nn1 | 0% | -4%
CC(C)CNC(=O)CN(c1cccc(Cl)c1Cl)S(=O)(=O)c1ccccc1 | 194%[activator] | -7%
O=C(Nc1ccccc1-c1ccccc1)c1ccc(Cl)cc1 | 23% | 11%
Cc1ccc2c(=O)cc(C(=O)N(Cc3ccc(Cl)cc3)C3CCS(=O)(=O)C3)oc2c1C (configuration not stated) | -5% | -7%
COC(=O)c1cn(CC(=O)NC2CCCC2)c2ccccc12 | -5% | 13%
O=C1[C@@H]2[C@H]3CC[C@H](C3)[C@@H]2C(=O)N1CCCCN1CCN(c2ncccn2)CC1 | -6% | -12%
CN(C)Cc1ccccc1CNC(=O)c1nn(-c2ccccc2)c2c1CCC2 | -25% | ?
O=C(Cc1ccc(F)cc1)NCCc1c[nH]c2ccccc12 | -3% | 5%
O=c1cc(CSc2nnnn2-c2ccccc2)[nH]n1-c1ccc(Cl)cc1 | -7% | 1%
COc1ccc(N(Cc2cccs2)C(=O)Nc2cccc(Cl)c2)cc1 | -1% | 1%
Cc1nc(-c2ccc(S(=O)(=O)NCc3ccc(OC(C)C)cc3)cc2)co1 | -11% | -3%
CCOc1ccc(NC(=O)Cn2cnc3c(cnn3-c3cc(Cl)ccc3C)c2=O)cc1 | 4% | 7%
COc1ccc(C2CC(=O)Nc3cc4c(cc32)OCO4)c(OC)c1 (configuration not stated) | -7% | 16%
CC(=O)N1CCc2c(sc3c2c(=O)n(Cc2ccccc2)c(=O)n3CC(=O)Nc2ccc(C)c(F)c2)C1 | 25% | -5%
CN(Cc1ccco1)C(=O)c1ccc(S(C)(=O)=O)cc1 | 5% | 15%
CCn1ncc(Br)c1C(=O)Nn1c(C)nc2sc3c(c2c1=O)CCC(C)C3 (configuration not stated) | -9% | 0%
Cn1cnc2c1c(=O)n(CC(=O)N1CC(C(=O)N3CCOCC3)Oc3ccccc31)c(=O)n2C (configuration not stated) | -8% | 0%
CCN1CCC(NC(=O)CN(C)Cc2ccc(C(F)(F)F)cc2)CC1 | -1% | 0%
Cn1c(C(=O)NCc2ccc(F)cc2)cc2cc(S(=O)(=O)N3CCCCC3)ccc21 | -7% | -6%
Cc1ccc(Cl)cc1-n1nnc(-c2nsc(NC(=O)c3ccccc3Cl)n2)c1C | -15% | 111%[activator]
Cc1ccc(C)c(NC(=O)NCc2ccc3c(c2)CCN3C(=O)c2ccccc2)c1 | -9% | -11%
CC(=O)NCCc1ccc(C(=O)COc2c(Cl)cccc2Cl)s1 | 42%[activator] | 11%
O=c1cc[nH]c(=S)[nH]1 | 9% | 2%[11.5 µM]
COC(=O)CN1C(=O)CSc2ccc(S(=O)(=O)Nc3ccccc3)cc21 | 237%[activator] | -14%
O=C(/C=C/Nc1ccc(Cl)cc1)C(F)(F)F | 1% | 3%
ClC1=C(Cl)C2(Cl)C(CBr)CC1(Cl)C2(Cl)Cl (configuration not stated) | -6% | -15%
Cc1[nH]c2ccc(Cl)cc2c1CCNC(=S)NC(C)(C)C | 15% | ?
CCCNC(=O)C(C)Sc1nc(-c2ccco2)nc2ccccc12 (configuration not stated) | -1% | 4%
CCOc1ccc(N2CC(c3nc4ccccc4n3CCCOc3ccc(OC)cc3)CC2=O)cc1 (configuration not stated) | 2% | -17%
Cc1cc(C)c2cc(C(=O)O)[nH]c2c1 | -15% | -1%
CCn1c(=O)c2cc(C(=O)N(C)c3cc(Cl)c(OC)cc3OC)sc2c2ccccc21 | -1% | 0%
CCC(C)NC(=S)Nc1ccc(C)cc1 (configuration not stated) | 71%[activator] | 0%
Cc1nnc(NC(=O)CSCc2cc(=O)c3ccccc3[nH]2)s1 | -4% | -12%
COc1ccc(S(=O)(=O)N2CCN(c3ccccc3)CC2)cc1-c1noc(C2CCCCC2)n1 | 63% | 0%
COc1ccccc1-c1cc(C(F)(F)F)nc(S(=O)(=O)CCCC(=O)Nc2ccc(F)c(Cl)c2)n1 | -11% | -17%
COc1cc(NC(=O)CCc2c(C)nn(-c3ccc(N4CCOCC4)nn3)c2C)cc(OC)c1OC | -1% | -7%
O=C(CCc1cccc(F)c1)NC1CC2CC1C1CCCC21 (configuration not stated) | 4% | -6%
COc1ccc(OCCOC(=O)c2ccc3nccnc3c2)cc1 | 8% | 6%
COc1cccc(CNC(=O)CN2C(=O)N(c3ccccc3C)S(=O)(=O)c3ccccc32)c1 | -3% | -30%
COCCNC(=O)c1ccc2c(c1)N(Cc1cc(C)ccc1C)C(=O)c1ccccc1S2=O (configuration not stated) | -3% | -16%
O=C(NC1CC(=O)N(c2ccc(Cl)cc2)C1)C1CCCC1 (configuration not stated) | -16% | -13%
O=C(Nc1cccc(S(=O)(=O)N2CCOCC2)c1)c1cccc(CN2CCCC2=O)c1 | 39%[activator] | 12%

Five compounds drawn at random from those above:
SMILES | StopGo RLuc | StopGo FLuc
COc1ccc(S(=O)(=O)N2CCN(c3ccccc3)CC2)cc1-c1noc(C2CCCCC2)n1 | 63% | 0%
Cc1nnc(NC(=O)CSCc2cc(=O)c3ccccc3[nH]2)s1 | -4% | -12%
O=C(Nc1cccc(S(=O)(=O)N2CCOCC2)c1)c1cccc(CN2CCCC2=O)c1 | 39%[activator] | 12%
COc1cc(NC(=O)CCc2c(C)nn(-c3ccc(N4CCOCC4)nn3)c2C)cc(OC)c1OC | -1% | -7%
COc1ccc(OCCOC(=O)c2ccc3nccnc3c2)cc1 | 8% | 6%

Other results follow.
SMILES | StopGo RLuc | StopGo FLuc
CC(C)c1nc2n(n1)C1(CCCCC1)[C@@H]1CCCC[C@@H]1N2 | -9% | -2%
CCN(CC)CCNC(=O)C(=O)Nc1cccc(N2CCCS2(=O)=O)c1 | 2% | 10%
CCC(CC)NC(=O)C1CCN(C(=O)C(C)(C)C)CC1 | -4% | -5%
CCc1nc(NC(CC)CO)c(C#N)c2c1CCCC2 (configuration not stated) | 3% | -11%
COc1ccc(NC(=O)CSc2cc(-c3ccccc3)nc(C)n2)cc1 | -19% | -10%
CC(C)(C)c1ccc(C(CC(=O)O)NC(=O)Cc2ccc(F)cc2)cc1 (configuration not stated) | 9% | 1%
CC(C)(C)c1ccc(S(=O)(=O)N2CCN(C(=O)c3cc(-c4ccc(Br)cc4)n[nH]3)CC2)cc1 | -4% | 5%
COc1ccc(CCC2CCN(C(=O)C3CCN(S(=O)(=O)c4ccccc4C#N)CC3)CC2)cc1 | ? | ?
O=C(NCc1ccccc1Cl)C1CCCN(S(=O)(=O)c2cccc3nsnc23)C1 (configuration not stated) | 23% | -11%
CCc1ccccc1NC(=O)Cn1c(SCc2ccc(F)cc2)nc2ccncc21 | -22% | 79%[activator]
CCN(CC)S(=O)(=O)c1cccc(NS(=O)(=O)c2ccc(C)cc2)c1 | 349%[activator] | 7%
Cc1cccc(C)c1NC(=O)Cn1cc(C(=O)C2CC2)c2ccccc21 | -12% | -14%
CC(CC1c2ccccc2CCc2ccccc21)CN(C)C (configuration not stated) | -20% | -26%
Cc1ccc(-c2nn(CC(=O)NC(C)(C)C)c(=O)c3ccccc23)cc1S(=O)(=O)N(C)C | 1% | 3%
Cc1ccc(C(=O)N2C3=C(CCCC3)C(=O)NC23CCCCC3)cc1 | 10% | 33%[activator]
CCN(c1ccc(NC(=O)c2ccc3nc[nH]c3c2)cc1)C(C)C | 32%[activator] | 209%[activator]
COC(=O)c1ccccc1NC(=O)CCn1c(=O)c2cccn2c2cccnc21 | -8% | -4%
Cc1ccc(Cl)cc1NC(=O)Nc1cn(CC(C)C)c(=O)c2ccccc12 | -5% | -10%
O=S(=O)(NC1CCN(S(=O)(=O)c2c(Cl)cccc2Cl)CC1)c1cccs1 | 247%[activator] | 6%
COc1cc(CNCc2c(C(=O)O)c(C)n(Cc3c(C)cc(C)cc3C)c2C)cc(OC)c1OC | 149%[activator] | 1%
Nc1c(-c2nc(-c3cccs3)no2)nnn1-c1ccccc1Cl | -14% | 41%[activator]
CCc1cccc(C)c1NC(=O)c1cc(=O)c2cc(C)ccc2o1 | -10% | -8%
COC(=O)c1scc(-c2ccc(C)cc2)c1S(=O)(=O)Nc1ccc(F)cc1F | 344%[activator] | -13%
CCCN1C(C(=O)c2ccccc2)=C(OC(=O)c2ccc(F)cc2)c2ccccc2S1(=O)=O | 9% | -29%
Cc1ccc(OCCCOc2ccccc2/C=N/NC(=O)c2cccc(Cl)c2)c(C)c1 | 8% | 52%[activator]
Cc1cccn2c(=O)c3cc(C(=O)N4CCN(c5ccccc5)CC4)sc3nc12 | -4% | 12%
CCOC(=O)c1c(S(=O)(=O)N2CCCC2)nn(CC)c1C | -7% | 0%
CCOc1ccc(C(=O)N2CCc3cc(OC)c(OC)cc3C2COc2ccc3c(C)cc(=O)oc3c2)cc1OCC (configuration not stated) | 4% | -18%
COc1ccc2c(C)c(CC(=O)NCCN3CCOCC3)c(=O)oc2c1OC | -7% | -1%
COc1ccc(C)cc1NC(=O)Cn1c(=O)ccc2cc(S(=O)(=O)N3CCC(C)CC3)ccc21 | 37%[activator] | 19%
Cc1ccc(C(=O)Nc2ccc3c(c2)n(C)c(=O)c(=O)n3C)cc1 | -4% | -3%
CCCOc1ccc(NC(=O)COc2ccc(C)cc2)c2cccnc12 | -5% | 7%

Assay outcomes (PubChem)
